D2 ag = Beta-Arrestin HTS for Positive Allosteric Modulators of the Human D2 Dopamine Receptor: Agonists; activation, % (test concentration not listed); hit rate 0.084% among 360,000; D(2) dopamine receptor (Homo sapiens), P14416; DiscoveRx PathHunter D2 beta-arrestin, luminescence, 90 min; 100% = 57 uM dopamine signal; in the data active = activation above about 40%; inconclusive = about 15% to 40%; inactive = below about 15%; also: compound concentration not given in the record; the text of the record calls up to 30% inactive
Target sequence (P14416 whole entry, looked up): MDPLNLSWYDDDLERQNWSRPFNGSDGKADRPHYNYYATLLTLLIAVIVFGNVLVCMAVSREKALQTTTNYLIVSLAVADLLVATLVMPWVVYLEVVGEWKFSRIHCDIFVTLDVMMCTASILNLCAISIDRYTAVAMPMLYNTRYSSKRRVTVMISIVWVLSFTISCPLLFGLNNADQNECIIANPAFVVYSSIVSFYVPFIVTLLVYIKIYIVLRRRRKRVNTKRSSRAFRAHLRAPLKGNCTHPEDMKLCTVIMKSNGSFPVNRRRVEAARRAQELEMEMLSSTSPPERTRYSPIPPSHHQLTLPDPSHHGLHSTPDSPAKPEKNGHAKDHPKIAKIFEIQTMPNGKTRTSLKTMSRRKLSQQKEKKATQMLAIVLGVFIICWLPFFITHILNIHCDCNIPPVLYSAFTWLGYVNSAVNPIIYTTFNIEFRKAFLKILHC
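DiscoveRx PathHunter D2 beta-arrestin cells (2,100/well) attached overnight, then compound-stimulated 90 min at 37 C in HBSS/10 mM HEPES/0.1% Tween-20 buffer; beta-galactosidase complementation read by luminescence after 1 h at ambient temperature. Dopamine 57 uM final (EC100) as control.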
ClpP mod = qHTS Assay for Activators of ClpP; hit rate 1.9% among 340,000; purified B. subtilis ClpP, FRET peptide cleavage, 20 min; Potency, µM (series often up to 57.5 µM), inactives show at the top dose activity change, negative = active; AID 651965, 2013; ATP-dependent Clp protease proteolytic subunit (Bacillus subtilis (strain 168)), P80244; active = well fitted falling curve with a large enough effect; inconclusive = small, poorly fitted or top-dose-only effect; inactive = no such curve, though single readings can be large or run the other way; also: potency is read from the fitted curve at half-maximal effect; the source files actives as falling curves though it sought activators and does not explain the sign; nearly all actives have a fitted effect of over 65% in size; many hits overshoot -100%
Target sequence (P80244 whole entry, looked up): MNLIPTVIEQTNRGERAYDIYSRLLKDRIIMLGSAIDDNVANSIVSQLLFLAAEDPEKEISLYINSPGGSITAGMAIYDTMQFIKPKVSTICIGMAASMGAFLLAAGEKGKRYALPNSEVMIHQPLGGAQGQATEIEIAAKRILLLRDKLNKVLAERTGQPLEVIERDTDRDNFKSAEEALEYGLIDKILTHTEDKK
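Purified B. subtilis ClpP, 10 microg/mL final in Tris/HCl pH8 with KCl, BSA, glycerol and Tween-20, cleaved an Abz/nitrotyrosine-quenched decapeptide. Fluorescence (ex 320, em 430) was read at 0 and 20 min at room temperature. Delta was normalized to 5.8 microM ADEP and DMSO/no-enzyme controls.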
gsp agonist = qHTS for Agonist of gsp, the Etiologic Mutation Responsible for Fibrous Dysplasia/McCune-Albright Syndrome: qHTS; gsp mutant cells, cAMP HTRF, 30 min; control for the full effect not named in the record; Potency, µM (top dose mostly 76.9 µM), inactives show top-dose activation (cAMP increase), most hits filed as activators; hit rate 0.13% among 340,000; AID 624287, 2012; active = well fitted activation curve with a large enough effect; inconclusive = small, poorly fitted or top-dose-only effect, or another doubt; inactive = no such curve, though single readings can be large or run the other way; cell line not stated here;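 also: phosphodiesterase inhibitor Ro 20-1724 added with compounds to block cAMP breakdown; potency is read from the fitted curve at half-maximal effect; nearly all actives have a fitted effect of over 60% in size; about a fifth of the inactives were tested at one dose only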
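Cells in DMEM/10% FBS with G418 were pretreated with compounds in DMSO plus […] (300 uM stock) for 30 min at 37C. cAMP was measured by HTRF (cAMP-d2 plus anti-cAMP antibody-K) after 30 min at room temperature.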
gsp antag = qHTS for Antagonists of gsp, the Etiologic Mutation Responsible for Fibrous Dysplasia/McCune-Albright Syndrome: qHTS. Potency, µM (titrated, usually from 76.9 µM), for the others: at the highest dose activity change, negative = inhibition, most hits filed as inhibitors. hit rate 0.4% among 340,000. gsp-mutant cells, cAMP HTRF, 30 min; control for the full effect not named in the record. AID 624288, 2012; active = falling curve of any shape with a large fitted effect; inconclusive = falling curve, mostly with a smaller effect; inactive = flat or rising curve; cell line not stated here;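 also: intracellular cAMP measured with PDE inhibitor Ro 20-1724 present during compound exposure; potency is read from the fitted curve at half-maximal effect; % is scaled to controls: 0 for no effect and ±100 for the full control effect; nearly all actives have a fitted effect of over 65% in size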
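HTRF cAMP measurement after 30 min RT detection following 30 min, 37C compound treatment alongside […] (added as 300 uM solution) in G418-selected cells seeded at 2000/well and grown 16–24 h.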
Sfp inh = qHTS Assay for Inhibitors of Bacillus subtilis Sfp phosphopantetheinyl transferase (PPTase). hit rate 3.5% among 310,000. Biochemical Sfp PPTase activity, qHTS. AID 1490, 2009. Potency, µM, for inactives: max response, negative = inhibition, hits mostly inhibitors. 4'-phosphopantetheinyl transferase ffp (Bacillus subtilis), Q9F4F7; active = well fitted inhibition curve with a large enough effect; inconclusive = small, poorly fitted or top-dose-only effect, or another doubt; inactive = no such curve, though single readings can be large or run the other way;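 also: the enzyme is Sfp with the accession as filed and its product quenches rhodamine fluorescence; potency is read from the fitted curve at half-maximal effect; 0% = enzyme reaction without inhibitor and -100% = no enzyme wells; top concentration of the series not given in the record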
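Step 1, compound plus 15 nM Sfp-PPTase, 15 min, room temperature. Step 2, add rhodamine-CoA (5 uM) and BHQ-2-YbbR (12.5 uM). Step 3, read 525/598 nm fluorescence at 0 and 30 min.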
PINK1 modulator = A Quantitative High throughput Screen to Identify Chemical Modulators of PINK1 Expression; Potency, µM (highest dose often 76.6 µM), without a hit: top-dose activation (PINK1 increase), hits mostly activators; PINK1 immunofluorescence, high-content cytometry, 24 h; AID 624263, 2012; hit rate 0.2% among 410,000; active = well fitted activation curve with a large enough effect; inconclusive = small, poorly fitted or top-dose-only effect; inactive = flat fitted curve, though single readings scatter; cell line not stated here;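 also: potency is read from the fitted curve at half-maximal effect; % of control where 0% means no effect; nearly all actives have a fitted effect of over 65% in size; a mitochondrial uncoupler was the plate control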
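Fluorescence from anti-PINK1 antibody, together with nuclear and cell stains, was scanned on a laser-scanning cytometer. Before staining, stable-line cells were incubated 24 hours with compounds at 5 concentrations; primary antibody 12 h at 10 degrees C.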
Menin MLL FP FL = qHTS Assay for Inhibitors Targeting the Menin-MLL Interaction in MLL Related Leukemias: Competition With Fluorescein Labeled MLL-derived Peptide; 290,000 tested, under 10 active; FP activity change, % at 61.4 µM; AID 1766, 2009; Fluorescence polarization, fluorescein-MLL peptide displacement from menin; inconclusive = falling polarisation curve, or a change in total fluorescence; inactive = total fluorescence flat and polarisation flat or rising; no compound was filed as active; the % refers to the polarisation; negative = inhibition;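 also: % of control where 0% means no effect; inhibitors lower the polarisation; unlabelled MLL peptide was the positive control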
The depositor's hits bear a star; u = inconclusive; x = no result given; [ ] = another dose, or the depositor's remark.

SMILES	D2 ag	ClpP mod	gsp agonist	gsp antag	Sfp inh	PINK1 modulator	Menin MLL FP FL
O=C(c1cccc(F)c1)N1CCCC(C(=O)N2CCCCC2)C1 (centres undefined)	10	0.4%	-6%	-1%	13%	-1.7%	x
CC(C)NC(=O)N(Cc1ccccc1)Cc1cccs1	-2.8	0.8%	0%[15.4 µM]	-1%	3%	-1.3%	2.9
CC1CCCN(C(=S)NCCc2ccccc2)C1 (centres undefined)	0.3	-3.9%	u	-10%	8%	-1.6%	-2.5
Cc1ccc(-n2ncc3c(NNC(=O)c4cccs4)ncnc32)cc1	-8.4	x	-15%[15.4 µM]	-6%	15%	-0.7%	-1.1
C1CCC(NC2=NCCC2)CC1	-1.5	-4.1%	23%	5%	-4%	-4.1%[38.3 µM]	2.3
COC(=O)c1oc2c(c1C)C(=O)CCC2	-1.8	x	-8%[15.4 µM]	4%	9%	-1.7%	6.9
C=CCOC(=O)C(C#N)c1nc2ccccc2nc1N1CCN(c2ccccc2OCC)CC1 (centres undefined)	0.3	-1.6%	10%	-2%	1%	2.2%	7.7
Cc1cc(NCc2ccccn2)nc2ccccc12	-1.4	u	-18%	-1%	-11%	4.0%[38.3 µM]	-0.6
O=C(Nc1ccccn1)c1ccc2c(c1)OCO2	-0.6	x	2%	2%	12%	-0.1%	-7.2
CCN(C(=O)COC(=O)c1cc([N+](=O)[O-])ccc1N1CCOCC1)C1CCS(=O)(=O)C1 (centres undefined)	-5.7	-0.5%	4%	1%	x	-6.8%	x
CN1C(N)=NC(=O)/C1=C/c1ccc(F)cc1	-6.3	1.6%	11%	-10%	12%	0.7%	9.6
CC(C)(CNC(=O)c1ccc(S(=O)(=O)N2CCCC2)cc1)N1CCOCC1	-5.6	-0.7%	-5%[15.4 µM]	1%	5%	1.4%	-4.9
COc1ccc(C2C3=C(Nc4ncnn42)c2ccccc2CCC3)cc1 (centres undefined)	-1.1	-23%	-26%	-14%	4%	1.4%[38.3 µM]	-0.9
CCCn1c(SCC(=O)N2CCCC(C)C2)nnc1-c1ccccn1 (centres undefined)	-1.8	-4.3%	-16%	6%	-4%	-3.3%	-1.4
COc1ccc(OC)c(/C=N/c2oc(-c3ccco3)c(-c3ccco3)c2C#N)c1	3.7	u	8%	7%	25µM*	-3.0%	u
CC(C)c1ccc(NC(=S)Nc2cccc3ccccc23)cc1	5.4	3.6%	u	11%	-2%	11%	3.1
Fc1ccccc1NC(=S)Nc1ccc(CN2CCOCC2)cc1	-4.4	x	11%[15.4 µM]	5%	-1%	1.1%	-0.2
Cc1ccc(OCC(=O)NNC(=O)C2CCN(c3nc(C)cc(C)n3)CC2)cc1	1.1	-12%	-63%[inhibitor]	7%	7%	9.8%[38.3 µM]	-1.0
Cc1ccc(C)c(NC(=O)c2ccccc2NC(=O)C2CCCO2)c1 (centres undefined)	0.5	0.2%	-66%[inhibitor]	4%	8%	0.4%	-2.2
Cc1onc(C(=O)/C=C/N(C)C)c1C(=O)Nc1nccs1	-3.7	0.6%	15%	2%	7%	5.7%	0.6
Cc1cccc(CCN(CC(=O)NCc2ccc(F)cc2)C(=O)c2csnn2)c1	2.4	-5.1%	-3%[15.4 µM]	2%	-1%	2.5%	-6.3
O=C(COC(=O)c1cc(S(=O)(=O)N2CCOCC2)c(Cl)cc1Cl)c1ccc[nH]1	-2.8	2.0%	-39%	-17%	x	0.2%	x
Cc1ccccc1NC(=O)N1CCC(NC(=O)C2CCCCC2)CC1	-5.2	0.7%	5%[15.4 µM]	-15%	14%	0.4%	2.4
Cn1cc(Cl)c(-c2nc3ccccc3[nH]2)n1	-3.5	u	-1%	7%	14%	1.1%	5.4
CN(Cc1ccccc1)Cc1c[nH]c2ccccc12	-4.1	0.9%	-9%	6%	7%	-2.1%	2.4
CCc1ccc(OCc2cccc(C(=O)N/N=C\c3cnn(C)c3C)c2)cc1	-1.7	-30%	8%	2%	7%	4.3%	1.3
O=C(CCc1ccccc1)Nc1ccccc1F	-3.1	1.1%	3%	6%	2%	-0.4%	0.2
Cc1ccccc1Nc1nnc(SCC(=O)c2cc3ccccc3o2)s1	-3.8	-1.3%	-33%	-10%	7%	1.2%	14
Cc1cc(C(=O)Nc2sccc2C(N)=O)c(C)o1	-4.2	x	u	-9%	x	0.7%	x
COc1ccccc1NC(=O)c1ccc(C)s1	-3.5	-1.6%	4%	0%	18%	1.7%	1.0
Cc1cc(C)cc(OCCN2CCOCC2)c1	-4.8	-1.3%	0%	6%	-12%	0.4%	4.9
COc1cc(Br)c(CC2c3cc(OC)c(OC)cc3CCN2C)cc1OC (centres undefined)	-6.2	-3.2%	27%	6%	4%	-5.7%	0.6
Cc1occc1C(=O)NCc1nc(-c2ccc(Cl)cc2)no1	-2.8	x	6%[15.4 µM]	5%	2%	1.9%	-1.1
COc1cccc(NC(=O)Nc2cc(NC(=O)Nc3cccc(OC)c3)c(C)nc2C)c1	-1.3	-1.0%	23%	-9%	-8%	11%	5.4
Cc1nc(CN(C)C(=O)CC2C(=O)NCCN2Cc2ccc(F)cc2)cs1 (centres undefined)	-6.0	-24%	-5%	-13%	-1%	-1.7%	x
COc1cccc(C(=O)NCCS(=O)(=O)NCc2cccs2)c1	-3.7	-6.0%	-45%[inhibitor]	5%	x	-0.4%	x
CC(OC(=O)c1ccc2c(c1)OCCO2)C(=O)c1ccccc1 (centres undefined)	-1.6	-1.0%	u	-2%	x	2.0%	x
CC/C(C)=C1\SC(N2CCN(c3cccc(C(F)(F)F)c3)CC2)=NC1=O	1.6	0.1%	-24%	12%	19%	x	4.7
CC(=O)c1ccc(N2C(=NC(=O)C(C)C)SC3CS(=O)(=O)CC32)cc1 (centres undefined)	-3.3	-0.1%	6%	-10%	-8%	-1.7%	1.7
COc1cc(-c2[nH]ncc2CN(C)Cc2cc(C)[nH]n2)cc(OC)c1OC	-2.4	-0.7%	-49%	10%	2%	1.7%	1.4
CC1CCCC(C)N1/N=C/c1ccccc1F (centres undefined)	-0.1	x	-1%	13%	50µM*	-1.3%	3.8
CC(C)CN1CCN(CC#Cc2ccccc2)CC1CCO (centres undefined)	-6.1	0.0%	-10%	13%	-7%	0.8%	2.0
OC(c1ccc(F)c(F)c1)c1nc(-c2ccc3c(c2)OCO3)cs1 (centres undefined)	-1.4	0.0%	x	x	x	6.4%	x
COc1ccc(Nc2cc(C)nc(NCc3ccccc3)n2)cc1	0.0	x	5%[15.4 µM]	-13%	32µM*	9.1%	2.8
CCc1ccc(N2CC(C(=O)Nc3cc(C)ccc3F)CC2=O)cc1 (centres undefined)	-0.1	0.4%	-42%[inhibitor]	-8%	-3%	5.0%[38.3 µM]	-2.5
Cc1c(NC(=O)C(C)Sc2nc3ccccc3c(=O)n2CCO)c(=O)n(-c2ccccc2)n1C (centres undefined)	-0.1	-0.2%	-31%[inhibitor]	2%	7%	10%[38.3 µM]	-3.5
Cc1ccc(S(=O)(=O)N2CCN(S(=O)(=O)c3ccccc3Br)C2=O)cc1	1.8	1.8%	x	3%	x	1.4%	x
O=C(O)c1ccc2c(c1)OCCO2	-0.5	-1.0%	10%	3%	10%	0.5%	0.5
COC(=O)c1cn(NC(=O)c2cccc(OC)c2)c(=O)c2ccccc12	-3.9	-0.9%	-44%[inhibitor]	12%	11%	-3.8%	1.8
Cc1ccc(S(=O)(=O)N2CCN(C(=O)Cn3nc(C)c([N+](=O)[O-])c3C)CC2)c(C)c1	0.0	0.9%	-55%[inhibitor]	7%	11%	-1.7%	x
COc1ccc(OC)c(-c2csc(NC(=O)C3c4ccccc4Oc4ccccc43)n2)c1	-2.6	-13%	2%[15.4 µM]	-1%	1%	-1.9%	6.9
O=C(COC(=O)COc1ccc(Cl)cc1)Nc1ncc(Br)s1	-1.6	x	-2%[15.4 µM]	-9%	x	1.3%	x
c1cnc2ncc3sccc3c2c1	-4.5	3.7%	-3%	18%	-1%	0.7%	0.1
COc1ccc(C(=O)OCCN2C(=O)c3ccccc3C2=O)cc1	1.1	0.0%	17%	-18%	-1%	11µM*	0.8
COc1ccc(CC(=O)Nc2nnc(CC(C)C)s2)cc1S(=O)(=O)N1CCOCC1	-6.4	1.0%	-78%	5%	x	-0.1%	x
O=C(Nc1ccc(F)cc1)C1CCN(c2nnnn2-c2ccccc2)CC1	-1.6	-4.6%	-5%	-25%	-2%	0.5%	-0.2
N#CC1=C(N)OC2=C(CC/C2=C\c2ccccc2Cl)C1c1ccccc1Cl (centres undefined)	-3.2	16%	19%	u	-7%	u	u
C=CCN(C(=O)Nc1ccc(F)cc1)C1CC(=O)N(c2ccc(OC)cc2)C1=O (centres undefined)	-1.6	-0.6%	36%	4%	15%	-4.9%[38.3 µM]	1.9
CCC(=O)N1c2ccccc2-c2nnc(SC)nc2OC1c1ccc(N(C)C)cc1 (centres undefined)	1.6	0.5%	-4%	-1%	-4%	9.6%	3.9
COc1cccc(-c2ccc(=O)n(CC(=O)Nc3cc4c(cc3NC(C)=O)OCCO4)n2)c1	-0.4	-1.1%	-28%	-5%	2%	1.3%[38.3 µM]	0.1
Cc1ccc(CNCC(O)(c2ccccc2)c2ccc(Cl)cc2)cc1 (centres undefined)	2.6	x	-74%[inhibitor]	-12%	-1%	5.0%	0.5

Rows were taken by chance. About 5.1% of those tested had a hit in this group.
